A1 inhib – inducers of caspase activity in MEF A1-2A-BIM cells, primary screen, A1 inhibitor project, cell-based, CaspaseGlo luminescence; caspase-Glo luminescence, 3 h; percent of clofoctol signal, DMSO as zero; caspase activation, % (concentration not given with the values); 21,000 compounds, 0.51% hits;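 active = most replicate scores above 10, or exactly half above 10 with mean activity above 10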;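 note: effector caspase 3 and 7 activity cleaving a DEVD luciferin substrate; 50 nL library stock added to about 30 µL; numbers are from one replicate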
BJeLR viability – BJeLR cell viability loss, primary screen, luminescence, CellTiterGlo ATP. AID 2275, 2010. viability loss activity score, % (test concentration not listed). BJeLR fibroblasts viability, 48 h; HRASV12, hTERT and SV40 LT/ST transformed. 30,000 compounds, 0.64% hits; in the data active = viability loss activity score above about 50%; about a fifth of its hits are not listed in these tables;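 note: higher score means fewer live cells and less ATP luminescence; stock transfer was 50 or 100 nL into about 30 µL; 0% = vehicle wells and 100% = a reference killing control; one replicate is shown; the record names a cut of 85%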
An asterisk follows results filed as active. A portion of the library; count on the stated rates, not on these rows.

For O=C(NCc1ccc(Cl)cc1)c1ccc(Cn2c(=O)[nH]c3ccsc3c2=O)cc1 the results were BJeLR viability 1.7.
`Cc1noc(C)c1NC(=O)Nc1ccc2c(c1)C(=O)N([C@@H](C)CO)C[C@H](C)[C@@H](CN(C)C(=O)Nc1ccc(C(F)(F)F)cc1)O2` gave A1 inhib -0.7 and BJeLR viability -3.0.
`COc1ccc(NC(=O)Nc2cccc3c2O[C@@H](CN(C)S(=O)(=O)c2ccc(F)cc2)[C@@H](C)CN([C@@H](C)CO)C3=O)cc1` gave BJeLR viability -1.6.
`CC(C)(O)/C=C/C(=O)[C@](C)(O)[C@H]1[C@H](O)C[C@@]2(C)[C@@H]3CC=C4[C@@H](C=C(O[C@@H]5O[C@H](CO)[C@@H](O)[C@H](O)[C@H]5O)C(=O)C4(C)C)[C@]3(C)C(=O)C[C@]12C` gave A1 inhib 0.8 and BJeLR viability 0.9.
O=C(CNS(=O)(=O)c1cccs1)N1CCCCC1 was read as BJeLR viability 0.1.
C[C@H](CO)N1C[C@H](C)[C@H](CN(C)C(=O)Nc2ccccc2)Oc2c(NS(=O)(=O)c3ccccc3)cccc2C1=O was read as BJeLR viability -2.5.
`CNC[C@H]1Oc2c(NC(=O)c3ccc(-c4nccs4)cc3)cccc2C(=O)N([C@H](C)CO)C[C@@H]1C` gave BJeLR viability -3.1.
For COc1cc(COc2cc(N)c(Cl)cc2C(=O)CCC2CCN(CCNS(C)(=O)=O)CC2)cc(OC)c1 the results were A1 inhib 2.1 and BJeLR viability 10.1.
For COc1ccc(S(=O)(=O)N(C)C[C@H]2Oc3c(NS(=O)(=O)c4cccs4)cccc3C(=O)N([C@@H](C)CO)C[C@@H]2C)cc1 the results were BJeLR viability -3.2.
Screening C[C@H](CO)N1C[C@H](C)[C@H](CN(C)C(=O)Nc2ccc3c(c2)OCO3)Oc2ccc(NS(=O)(=O)c3ccc(Cl)cc3)cc2C1=O returned A1 inhib 0.6 and BJeLR viability 0.8.
`CCc1nnc(Cn2nnc3c(=O)[nH]c(C(=O)Nc4ccc(C)cc4)nc32)s1` gave BJeLR viability -1.4.
For COC(=O)c1ccccc1NC(=O)CC1(c2ccc(Cl)cc2)C(=O)c2ccccc2C1=O the results were A1 inhib 0.0 and BJeLR viability 1.4.
CCCc1cc(C(=O)N(C2CCCCC2)C2CCCCC2)no1 was read as BJeLR viability 4.7.
`C[C@@H]1O[C@@H](Oc2ccc(-c3coc4cc(O[C@@H]5O[C@@H](C)[C@H](O)[C@@H](O)[C@H]5O)ccc4c3=O)cc2)[C@H](O)[C@H](O)[C@H]1O` gave A1 inhib 0.1 and BJeLR viability -3.5.
`CC(C)NC(=O)Nc1cccc2c1O[C@@H](CN(C)C(=O)Nc1ccc(F)cc1)[C@H](C)CN([C@H](C)CO)C2=O` gave BJeLR viability 1.3.
COc1ccc(-c2noc(CCC(=O)NCCN3CCN(c4ccccc4F)CC3)n2)cc1 was read as BJeLR viability 0.1.
Screening Cn1c(C(F)(F)F)nc2c(=O)oc3ccccc3c21 returned A1 inhib 0.0 and BJeLR viability 0.3.
Screening C[C@@H]1CN([C@H](C)CO)C(=O)c2cc(NC(=O)Cc3ccccc3)ccc2O[C@H]1CN(C)S(C)(=O)=O returned A1 inhib 0.0 and BJeLR viability 2.6.
`CC(C)NC(=O)Nc1cccc2c1O[C@H](CN(C)C(=O)Nc1ccc(F)cc1)[C@@H](C)CN([C@H](C)CO)C2=O` gave BJeLR viability -0.5.
Screening C[C@@H]1CN([C@H](C)CO)C(=O)c2cc(NC(=O)Nc3ccccc3)ccc2O[C@@H]1CN(C)Cc1ccc2c(c1)OCO2 returned A1 inhib 0.1 and BJeLR viability 2.2.
Screening O=S(=O)(CCSc1ccc(C(F)(F)F)cn1)c1ccc(OC(F)(F)F)cc1 returned A1 inhib -0.8 and BJeLR viability -0.5.
Screening C[C@@H]1CN([C@@H](C)CO)C(=O)c2cccc(NC(=O)Nc3ccc(F)cc3)c2O[C@@H]1CN(C)S(=O)(=O)c1cn(C)cn1 returned BJeLR viability 4.5.
`O=C(NCC1CCCO1)c1ccc2c(=O)n(-c3ccccc3)c(=S)[nH]c2c1` (stereo not given) gave A1 inhib -0.1 and BJeLR viability 8.7.
`C[C@H]1CN([C@@H](C)CO)C(=O)c2cccc(N(C)C)c2O[C@H]1CN(C)Cc1ccc(C(=O)O)cc1` gave BJeLR viability -2.3.
C[C@H](CO)N1C[C@H](C)[C@H](CN(C)Cc2ccc3c(c2)OCO3)Oc2c(NC(=O)NC3CCCCC3)cccc2C1=O was read as BJeLR viability -5.3.
Screening C[C@H](CO)N1C[C@H](C)[C@@H](CN(C)S(=O)(=O)c2cccs2)Oc2c(NC(=O)c3ccncc3)cccc2C1=O returned BJeLR viability -1.7.
Screening CC(C)NC(=O)N(C)C[C@H]1Oc2ccc(NC(=O)CCC(F)(F)F)cc2C(=O)N([C@@H](C)CO)C[C@H]1C returned A1 inhib 0.8 and BJeLR viability -0.7.
For C[C@@H]1CN([C@@H](C)CO)C(=O)c2cc(NC(=O)c3ccncc3)ccc2O[C@H]1CN(C)S(=O)(=O)c1cn(C)cn1 the results were A1 inhib -0.2 and BJeLR viability 4.1.
O=C1CC(c2ccccc2)C(=O)N1c1ccc(F)cc1 (stereo not given) was read as A1 inhib 0.1 and BJeLR viability 0.3.
For CC1(C)Cc2c(sc3nc(CCCc4ccccc4)n(N)c(=O)c23)CO1 the results were A1 inhib -0.9 and BJeLR viability -1.0.
For Cc1ccc(S(=O)(=O)Nc2cccc3c2O[C@@H](CN(C)S(=O)(=O)c2cccs2)[C@@H](C)CN([C@H](C)CO)C3=O)cc1 the results were BJeLR viability 5.1.
Screening Cc1c2cnn(CC(=O)O)c(=O)c2c(C)n1Cc1ccccc1F returned A1 inhib 0.1 and BJeLR viability 5.0.
`C[C@H](CO)N1C[C@H](C)[C@H](CN(C)CC2CCCCC2)Oc2ccc(NC(=O)Cc3ccccc3)cc2C1=O` gave A1 inhib 0.0 and BJeLR viability 0.2.
CCN(CC)c1nc2ccccc2c(N)c1-c1ccccc1 was read as A1 inhib -0.7 and BJeLR viability 3.8.
For NS(=O)(=O)c1cc(C(=O)O)cc(N2CCCC2)c1Oc1ccccc1 the results were A1 inhib 0.9 and BJeLR viability -2.3.
For COc1cc(NS(=O)(=O)c2ccc(N)cc2)nc(OC)n1 the results were A1 inhib 0.0 and BJeLR viability -0.6.
`O=C(O)CC1(CC(=O)Nc2cccc(C(F)(F)F)c2)CCCC1` gave BJeLR viability 2.4.
O=C1OCc2ccc(NS(=O)(=O)c3ccc(C(F)(F)F)cc3)cc21 was read as BJeLR viability 5.1.
Screening O=C(NCc1ccc2c(c1)OCO2)c1cccc2ccccc12 returned A1 inhib 1.4 and BJeLR viability -2.3.
Screening C[C@H]1CN([C@@H](C)CO)C(=O)c2cccc(NC(=O)C3CC3)c2O[C@H]1CN(C)Cc1ccc(Oc2ccccc2)cc1 returned BJeLR viability 1.2.
Screening OC(COc1ccc(Br)cc1)Cn1ccnc1 (stereo not given) returned A1 inhib -0.3 and BJeLR viability -2.4.
`CC1OC(O[C@H]2[C@@H](O)C[C@@]3(C)C([C@H](O)C[C@]4(C)C3CC=C3[C@@H]5CC(C)(C)CC[C@]5(C(=O)OC5OC(C)C(OC6OCC(OC7OCC(O)C(OC8OCC(O)C(O)C8O)C7O)C(O)C6O)C(O)C5O)CC[C@]34C)[C@]2(C)CO)C(O)C(OC2OC(CO)C(O)C(O)C2O)C1O` (stereo not given in full) gave A1 inhib 0.4 and BJeLR viability -0.3.
For CC(=O)OC(CCCCCCCCCC(C)O)Cc1cc(O)cc(O)c1 (stereo not given) the results were A1 inhib 0.0 and BJeLR viability -0.8.
Screening O=C(N1CC(Oc2ccc(Cl)cc2)C1)N1CC(Oc2ccc(Cl)cc2)C1 returned A1 inhib -1.7 and BJeLR viability -4.2.
`CC1=CC(C)(C)N(C(C)C)C(=O)N1c1ccc(C)cc1` gave A1 inhib -1.1 and BJeLR viability -3.2.

Sorted by length of the SMILES (rising): 10 of the compounds above
CCN(CC)c1nc2ccccc2c(N)c1-c1ccccc1 was read as A1 inhib -0.7 and BJeLR viability 3.8.
Screening Cn1c(C(F)(F)F)nc2c(=O)oc3ccccc3c21 returned A1 inhib 0.0 and BJeLR viability 0.3.
Screening O=C(NCc1ccc2c(c1)OCO2)c1cccc2ccccc12 returned A1 inhib 1.4 and BJeLR viability -2.3.
For COc1cc(NS(=O)(=O)c2ccc(N)cc2)nc(OC)n1 the results were A1 inhib 0.0 and BJeLR viability -0.6.
`CC1=CC(C)(C)N(C(C)C)C(=O)N1c1ccc(C)cc1` gave A1 inhib -1.1 and BJeLR viability -3.2.
Screening Cc1c2cnn(CC(=O)O)c(=O)c2c(C)n1Cc1ccccc1F returned A1 inhib 0.1 and BJeLR viability 5.0.
Screening O=C(N1CC(Oc2ccc(Cl)cc2)C1)N1CC(Oc2ccc(Cl)cc2)C1 returned A1 inhib -1.7 and BJeLR viability -4.2.
`CNC[C@H]1Oc2c(NC(=O)c3ccc(-c4nccs4)cc3)cccc2C(=O)N([C@H](C)CO)C[C@@H]1C` gave BJeLR viability -3.1.
`Cc1noc(C)c1NC(=O)Nc1ccc2c(c1)C(=O)N([C@@H](C)CO)C[C@H](C)[C@@H](CN(C)C(=O)Nc1ccc(C(F)(F)F)cc1)O2` gave A1 inhib -0.7 and BJeLR viability -3.0.
`CC1OC(O[C@H]2[C@@H](O)C[C@@]3(C)C([C@H](O)C[C@]4(C)C3CC=C3[C@@H]5CC(C)(C)CC[C@]5(C(=O)OC5OC(C)C(OC6OCC(OC7OCC(O)C(OC8OCC(O)C(O)C8O)C7O)C(O)C6O)C(O)C5O)CC[C@]34C)[C@]2(C)CO)C(O)C(OC2OC(CO)C(O)C(O)C2O)C1O` (stereo not given in full) gave A1 inhib 0.4 and BJeLR viability -0.3.

More entries:
Screening Cc1noc(C)c1NC(=O)N(C)C[C@H]1Oc2ccc(NC(=O)CCCCCC(=O)Nc3ccccc3N)cc2C(=O)N([C@H](C)CO)C[C@@H]1C returned BJeLR viability -3.3.
C=CCn1c2ccccc2n2cc(-c3ccccc3)nc12 was read as A1 inhib 0.3 and BJeLR viability 4.1.
Screening CC1CCC(C(C)C)C(=O)/C1=C\c1ccc(NC(=O)CCC(=O)O)cc1 (stereo not given) returned A1 inhib -1.5 and BJeLR viability 1.7.
`COc1ccc(C2=Nn3cnnc3SC2)cc1OC` gave A1 inhib 0.1 and BJeLR viability 0.1.
Screening COc1nc(Nc2ccc(OC(F)(F)F)cc2)nc(NC2CC2)n1 returned A1 inhib -0.1 and BJeLR viability -4.9.
`CCOC(=O)CSC1=C(C#N)C(c2ccc(Cl)cc2)C(C(=O)OC)C(=O)N1` (stereo not given) gave A1 inhib 0.1 and BJeLR viability -3.7.
C[C@H]1CN([C@@H](C)CO)C(=O)c2cc(NC(=O)CCCN(C)C)ccc2O[C@H]1CN(C)S(=O)(=O)c1ccccc1 was read as A1 inhib 0.4 and BJeLR viability -1.9.
Screening CC(=O)O[C@@H]1[C@@H](OC(=O)/C=C/c2ccccc2)[C@@H](OC(=O)/C=C/c2ccccc2)[C@H](O[C@H]2[C@@H]3C=CO[C@@H](O[C@@H]4O[C@H](CO)[C@@H](O)[C@H](O)[C@H]4O)[C@@H]3[C@@]3(CO)O[C@@H]23)O[C@H]1C returned A1 inhib -0.4 and BJeLR viability -0.4.
`C[C@@H]1CN([C@@H](C)CO)C(=O)c2cc(NC(=O)NC3CCCCC3)ccc2O[C@H]1CN(C)S(=O)(=O)c1ccc(F)cc1` gave A1 inhib 0.9 and BJeLR viability 2.4.
`CC1CCN(C(=O)CSc2c3c(nc4ccccc24)CCCC3)CC1` gave BJeLR viability 0.5.
Screening C[C@H](CO)N1C[C@H](C)[C@@H](CN(C)S(C)(=O)=O)Oc2ccc(NC(=O)c3ccncc3)cc2C1=O returned A1 inhib -0.7 and BJeLR viability 3.7.
`CC(C)C1N=C2c3ccccc3N=C(SCc3ccccc3F)N2C1=O` (stereo not given) gave A1 inhib -1.6 and BJeLR viability 0.2.
Screening CC(=O)NCCc1ccc(O)cc1 returned A1 inhib 0.9 and BJeLR viability -8.5.
C[C@@H]1CN([C@@H](C)CO)C(=O)c2cccc(NC(=O)C3CCOCC3)c2O[C@H]1CN(C)C was read as BJeLR viability -2.9.
For CN1CCN(NC(=O)CCN2C(=O)/C(=C\c3ccccc3)SC2=S)CC1 the results were A1 inhib -0.4 and BJeLR viability -6.6.
CS(=O)(=O)Nc1cc(-c2nnc(Nc3ccccc3)c3ccccc23)ccc1N1CCOCC1 was read as BJeLR viability -5.8.
For COc1ccc(NC(=O)Nc2cccc3c2O[C@@H](CN(C)C(=O)NC2CCCCC2)[C@@H](C)CN([C@H](C)CO)C3=O)cc1 the results were BJeLR viability -1.6.
`C[C@H]1CN([C@@H](C)CO)C(=O)c2cc(NC(=O)C3CC3)ccc2O[C@@H]1CN(C)Cc1ccc(C(F)(F)F)cc1` gave A1 inhib -0.3 and BJeLR viability 0.8.
For S=C(NC1CCCCC1)N(Cc1ccccc1)CC1CC=CCC1 (stereo not given) the results were A1 inhib 0.2 and BJeLR viability 10.5.
CC(C)N(C(=O)N1CCN(c2ccnc3cc(Cl)ccc23)CC1)C(C)C was read as A1 inhib -0.1 and BJeLR viability -1.8.
`COC(=O)c1ccc(C(=O)Nc2ccc(C(F)(F)F)cc2)nc1` gave A1 inhib -1.5 and BJeLR viability 2.4.
For O=C(Cc1ccc(-n2c(=S)[nH]c3ccccc3c2=O)cc1)NCCc1ccccc1 the results were A1 inhib -0.3 and BJeLR viability 1.4.
For C[C@@H]1CN([C@@H](C)CO)C(=O)c2cc(NC(=O)CCC(F)(F)F)ccc2O[C@H]1CN(C)Cc1ccncc1 the results were A1 inhib 0.6 and BJeLR viability -3.2.
CCCCC/C=C\C/C=C\CCCCCCCC(N)=O was read as A1 inhib 0.3 and BJeLR viability -1.5.

Source: PubChem (Broad Institute)
